Source: PubChem (National Center for Advancing Translational Sciences (NCATS))
VDR inh: inhibitors of human vitamin D receptor; Potency, µM, for the others: max response, negative = inhibition, actives largely listed as inhibitors; P11473; 400,000 compounds, 0.93% hits; VDR-SRC2-3 peptide fluorescence polarization, 2 h; active means well fitted inhibition curve with a large enough effect; inconclusive means small, poorly fitted or top-dose-only effect, or another doubt; inactive means no such curve, though single readings can be large or run the other way; further: series mostly up to about 120 µM
Target sequence (P11473 whole entry, looked up): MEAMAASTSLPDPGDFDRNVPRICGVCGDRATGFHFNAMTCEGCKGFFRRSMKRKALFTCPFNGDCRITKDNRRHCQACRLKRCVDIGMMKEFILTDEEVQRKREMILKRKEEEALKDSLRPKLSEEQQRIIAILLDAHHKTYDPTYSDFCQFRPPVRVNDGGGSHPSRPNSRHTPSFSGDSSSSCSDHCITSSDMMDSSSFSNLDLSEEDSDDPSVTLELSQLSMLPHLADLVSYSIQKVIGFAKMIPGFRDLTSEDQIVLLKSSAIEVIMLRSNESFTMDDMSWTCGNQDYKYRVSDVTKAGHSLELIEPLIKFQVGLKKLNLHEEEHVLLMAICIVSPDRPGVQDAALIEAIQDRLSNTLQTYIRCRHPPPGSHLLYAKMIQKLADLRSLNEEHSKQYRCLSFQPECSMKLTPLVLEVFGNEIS
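Compounds are added to VDR with labelled SRC2-3 coactivator peptide and held 2 h at room temperature. Inhibition of the VDR–peptide interaction is then read as a change in fluorescence polarization.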
An asterisk follows results filed as active; ? = inconclusive; [ ] = dose if it differs, or a comment. On the % scale 0 is the no-effect control and ±100 the full control effect; potency means the concentration at half of the fitted maximal effect. Only part of the results is shown, so the mix of outcomes need not match the whole.

VDR inh,Compound
-17%,O=C(O/N=C(/c1ccccc1)c1ccncc1)c1ccccc1[N+](=O)[O-]
?,Cc1cc(C)nc(NN2C(=O)C=CC2=O)n1
9%,CCOc1cccc(C(=O)Nc2ccc(S(=O)(=O)N(Cc3ccccc3)c3ccccc3)cc2)c1
-3%,CCC(=O)Nc1ccc(C(=O)OCC(=O)c2ccc(C)c([N+](=O)[O-])c2)cc1
27%,O=C(O)c1cccc(N2CCCCS2(=O)=O)c1
-3%,COc1cccc2cc(C(C)N(CCCN3CCOCC3)C(=S)Nc3cc(C)ccc3C)oc12 (configuration not stated)
-10%,CCN(CC)S(=O)(=O)c1ccc(Cl)c(C(=O)Oc2cccc(-c3cnc4ccccc4n3)c2)c1
1%,CCCOc1ccc(N2C(=O)CC(N(CCC)C(=O)CCC(=O)O)C2=O)cc1 (configuration not stated)
-23%,Cc1ccc(-n2c(SCC(=O)Nc3ccc4c(c3)OCO4)nnc2-c2ccoc2C)cc1
7%,O=C(CC(C(=O)N1CCc2ccccc21)n1ccnc1)NCc1cccnc1 (configuration not stated)
?,CCCCCC(=O)NNC(=S)NC(=O)c1ccccc1[N+](=O)[O-]
9%,COc1ccc(N(Cc2cc3ccccc3[nH]c2=O)C(=O)C2CCCO2)cc1 (configuration not stated)
-6%,COCCn1c(N)c(S(=O)(=O)c2cccs2)c2nc3ccccc3nc21
-5%,O=C(CSc1ccc(Cl)cc1)Nc1ccc(N2CCN(C(=O)c3ccco3)CC2)cc1
-7%,CC(=O)N1CCc2cc(S(=O)(=O)CCC(=O)NCc3ccc(C)o3)ccc21
5%,Cc1c(/C=C/C(=O)c2ccc(C(C)C)cc2)cnn1C
-16%,CC(C)(C)NC(=O)C1CCN(S(=O)(=O)c2cccc(C(F)(F)F)c2)CC1
-7%,COc1ccc(CC(NC(C)=O)C(=O)NC2CCN(C(=O)c3ccc(OC)c(OC)c3)CC2)cc1OC (configuration not stated)
-12%,COc1cc(NC(=O)c2csc3c2CCCC3)ncn1
-1%,COc1ccc(C(=O)NC(=O)Nc2ncccc2C)cc1
-3%,CCN(CC)C(=O)C(=O)N/N=C/c1ccc(C(=O)O)cc1
5%,COCCN1C(=O)C(=O)/C(=C(/O)c2ccc(S(=O)(=O)N3CCOCC3)cc2)C1c1cccc([N+](=O)[O-])c1 (configuration not stated)
12%,O=C(CN1CCCCCC1)Nc1ccccc1C(=O)Nc1ccccc1
-9%,CCc1cccc(N(C(=O)c2csnn2)C(C(=O)NC(C)(C)CC)c2ccccn2)c1 (configuration not stated)
-13%,COC1(OC)N=C(N)C2(C#N)C(c3cccc(Oc4ccccc4)c3)C12C#N (configuration not stated)
-3%,CCCCOC(=O)c1ccc(NC(=O)c2c(N)n(C)c(=O)[nH]c2=O)cc1
-3%,COc1ccc(/C=C(\NC(=O)c2ccccc2)C(=O)NCC2CCCO2)cc1 (configuration not stated)
4%,Cc1ccccc1C(=O)NC(=O)Nc1ccc(-n2nc(C(F)(F)F)cc2C(F)(F)F)cc1
-7%,Cc1cc(/C=N/NC(N)=S)c(O)c(/C=N/NC(N)=S)c1
-4%,O=C(COc1ccc(Cl)cc1)NCCSc1ccccc1
-1%,COC(=O)c1ccc(NC(=O)CSc2n[nH]c(-c3ccncc3)n2)cc1
11%,O=C1c2ccccc2-c2cccc(C(=O)N3CCCCC3)c21
3%,COc1cc(C2C(C(=O)c3ccco3)=C(O)C(=O)N2CC2CCCO2)ccc1O (configuration not stated)
-12%,COc1cccc(NC(=O)CN(C)C(=O)C2CCN(C(=O)c3ccccc3C)CC2)c1
-15%,COc1ccccc1CNS(=O)(=O)c1c(C)[nH]c(C)c1C(=O)N1CCCCC1
-11%,CCCNC(=O)Nc1ccccc1SC
18%,O=C(Nc1ccc(F)c(F)c1)c1cc(S(=O)(=O)NC2CCCC2)ccc1F
-2%,CCOC(=O)Cn1nnnc1C(C(C)C)N(Cc1cccs1)Cc1cc2cc(C)ccc2[nH]c1=O (configuration not stated)
9%,CCOC(=O)Nc1ccc2c(c1)N(C(=O)C(C)N1CCCC1)c1ccccc1CC2 (configuration not stated)
-15%,COc1ccc(S(=O)(=O)N2CCN(C)CC2c2ccccc2)cc1OC (configuration not stated)
3%,Cc1ccccc1CNC(=O)c1oc2c(c1C)-c1[nH]ncc1CC2
10%,CC1C(=O)N2CCCc3cc(S(=O)(=O)NCc4ccccc4Cl)cc1c32 (configuration not stated)
1%,COC(=O)c1ccccc1NC(=O)c1cc(C)nc2c1c(C)nn2-c1ccc(C)cc1
-5%,CC(Oc1ccccc1)C(=O)Nc1nc2c(s1)C(=O)CC(C)(C)C2 (configuration not stated)
-7%,O=C(Nc1ccc(Cl)cc1)Nc1ccccc1C(=O)O
-2%,CCCCn1c(N)c(N(CC)C(=O)c2ccc(N3CCCC3=O)cc2)c(=O)[nH]c1=O
-15%,Cc1ccc2nc(Cl)c3cc(C(=O)NCCCN4CCCC4)sc3c2c1
-16%,Cn1c(NC(=O)c2ccc3c(c2)OCO3)cc(=O)n(C)c1=O
7%,Cc1cc(=O)[nH]c(N/N=C/c2ccccc2Cl)n1
-17%,COc1ccc(-n2c3c(cc(C(=O)NC4CCSC4=O)c2=O)C(=O)CC(C)(C)C3)cc1 (configuration not stated)
5%,COc1ccc(CC(=O)N2CCc3cc(OC)c(OC)cc3C2COc2ccc(OC)cc2)cc1 (configuration not stated)
1%,CN1CCN(C(c2cccc(Br)c2)c2sc3nc(-c4ccco4)nn3c2O)CC1 (configuration not stated)
7%,COC(=O)c1ccc(NC2(C#N)C(=O)Nc3ccccc32)cc1 (configuration not stated)
-8%,NC(=O)c1c(NC(=O)CSc2nnc(-c3ccco3)n2N)sc2c1CCCC2
-7%,CC1(C)CC(O)(CCNCc2ccc3c(c2)OCO3)CCO1 (configuration not stated)
-10%,COc1cc(OC)cc(C(=O)N2CCC(N3CCCCCC3)CC2)c1
-4%,Cc1ccc(S(=O)(=O)N2Cc3ccccc3CC2C(=O)NC(C)(C)C)cc1 (configuration not stated)
-15%,COCCCN(CC(=O)Nc1ccc(N2CCOCC2)cc1)S(=O)(=O)c1ccc(Cl)cc1
-2%,COc1ccc(N(C(=O)COc2ccc(Br)cc2)S(=O)(=O)c2ccc(C)cc2)cc1
-15%,COC(=O)CSc1nc(NC#N)nc(NC(C)(C)C)n1

Carrying on:
VDR inh,Compound
?,CCC(=O)N[C@@H]1CC(C(C)(C)NC(=O)CC)CC=C1C (some centres not stated)
-21%,COc1ccc(N2C(=O)C(CC(=O)Nc3ccc(Cl)cc3)N(Cc3ccc4c(c3)OCO4)C2=O)cc1 (configuration not stated)
8%,O=C(C1CCN(S(=O)(=O)c2cccc3cccnc23)CC1)N1CCN(C2CCCCC2)CC1
-28%,CCCC1CCC(c2ccc(C(=O)NN)cc2)CC1 (configuration not stated)
3%,C=CC[n+]1ccc2ccccc2c1C
-20%,COc1ccccc1OCC(=O)Nc1cc2c(cc1C(=O)O)OCCCO2
4%,CCOc1ccc(C(=O)NC2CCN(C(=O)NCc3ccccc3)CC2)cc1
-9%,O=C(CCc1ccc(S(=O)(=O)NCc2ccccc2)cc1)N1CCN(Cc2ccc3c(c2)OCO3)CC1
-2%,COc1ccc(C2c3[nH]c4ccccc4c3CCN2CCCn2cccn2)c(C)c1C (configuration not stated)
4%,COCCn1c(SCc2ccccc2F)nc2ccccc2c1=O
-18%,Cc1noc(C)c1C(=O)N1CCC[C@@]2(CCN(C(c3ccccc3)c3ccccc3)C2)C1
2%,Cn1nnc(NC(=O)c2ccccc2)n1
-1%,Cc1onc(-c2ccccc2)c1C(=O)Nc1ccc(S(=O)(=O)N2CCCCC2)cc1
-7%,Cc1c([N+](=O)[O-])cc(N2C(=O)C=CC2=O)cc1[N+](=O)[O-]
?,NS(=O)(=O)c1ccc2nc(NC(=O)COc3ccccc3)sc2c1
-7%,O=C1c2ccccc2C(O)(c2ncc[nH]2)N1CCc1ccccc1 (configuration not stated)
-4%,O=C(Nc1ccc2ccccc2c1)c1ccccc1[N+](=O)[O-]
-19%,COc1cc(NC(=O)c2nnn(Cc3ccc(SC)cc3)c2N)cc(OC)c1
9%,CCOc1ccc(NC(=O)c2ccc(S(=O)(=O)N3CCOCC3)cc2)cc1
8%,COc1ccc(/C=C/C(=O)c2c(C)nc3ccccn23)cc1
-3%,CCOc1ccccc1C(=O)NC(C(=O)NCc1ccc(F)cc1)C(C)C (configuration not stated)
6%,CC1(C)CC(=O)C2=C(C1)Nc1ccccc1S2
18%,O=C(CSc1nc(Nc2ccccc2)nc(N2CCOCC2)n1)N1CCc2ccccc21
2%,CCCCCC(=O)Nc1c2c(nc3ccccc13)CCC2
-3%,CCCN(C(=O)c1nc2nccc(C)n2n1)c1c(N)n(Cc2ccccc2)c(=O)[nH]c1=O
3%,CCN(Cc1ccccc1)C(=O)c1[nH]c2ccc(OC)cc2c1C
23%,Cc1ccc(CN2CC(C(=O)Nc3cccc(C)n3)CC2=O)cc1 (configuration not stated)
3%,Cc1ccc(OCc2ccccc2C)c([N+](=O)[O-])n1
-11%,COc1ccc(NC(=O)C2CCN(c3cnccn3)CC2)cc1OC
61%[activator],CCC(COC)NCc1cn(-c2ccc(OC)cc2)nc1-c1cccc(F)c1 (configuration not stated)

2 of the compounds above, field by field.
CCOc1ccc(NC(=O)c2ccc(S(=O)(=O)N3CCOCC3)cc2)cc1
- VDR inh: 9%
COc1ccc(/C=C/C(=O)c2c(C)nc3ccccn23)cc1
- VDR inh: 8%

(cont.)
VDR inh,Compound
-5%,CC(=O)Nc1ccccc1NC(=O)c1ccccc1
-14%,O=C(CSc1nnc(-c2cccnc2)n1Cc1ccco1)c1ccc(Br)cc1
-2%,COc1cccc(/C=N/NC(=O)N/N=C/c2cccc(OC)c2O)c1O
-1%,Cc1cc(C)n(C(=O)CNC(=O)C2COc3ccccc3O2)n1 (configuration not stated)
-18%,COc1ccc(-c2noc(CCC(=O)N3CCN(c4ccccc4C)CC3)n2)cc1
-14%,CC(C)(C)N(Cc1ccccc1)C(=O)COC(=O)c1ccc2ccccc2n1
4%,COC(=O)N1[C@H](C)C=C[C@]1(Cc1ccccc1)C(=O)O
-15%,COc1ccccc1NC(=O)CN1C(=O)NC(CC(C)C)C1=O (configuration not stated)
3%,CN1CCN(c2ccc(NC(=O)c3cc4ccccc4o3)cc2)CC1
-4%,COc1ccc(-c2cc(C(=O)Nc3cc(Br)ccc3O)no2)cc1
9%,CCN(CC)S(=O)(=O)c1cccc(-c2nnc(SCc3ncc(-c4ccccc4)o3)n2C)c1
-19%,CCCCCC[N+](C)(C)CC/C=C1/c2ccccc2Sc2ccc(Cl)cc21
?,CCOc1ccccc1OC(=O)c1cc2ccccc2oc1=O
9%,O=C(Cc1cccc2ccccc12)NN1C(=O)/C(=C\c2cccnc2)SC1=S
-13%,CC(Oc1ccc(Cl)cc1Cl)/C(N)=N/O (configuration not stated)
5%,O=C(Cn1c(=O)n(Cc2ccc(F)cc2)c(=O)c2ccccc21)NCC1CCCO1 (configuration not stated)
-1%,CC(C(=O)Nc1ccc2nccnc2c1)N1C(=O)C2C3C=CC(C3)C2C1=O (configuration not stated)
-4%,CCCCCCCC(=O)C(C)C(=O)N(C)[C@H](Cc1ccc(OC)cc1)C(=O)N(C)[C@H](C(N)=O)C(C)C (some centres not stated)
0%,Fc1ccc(NC(=S)Nc2cc(Cl)ccc2Cl)cc1
-8%,COc1ccc(-c2oc(=O)c3cc(OC)c(OC)cc3c2C#CCCO)cc1
12%,CCOc1ccc(CN2CCN(C(=O)c3cccc(F)c3)CC2)cc1
-8%,Cc1ccc(S(=O)(=O)N(CC(O)Cn2c3ccccc3c3ccccc32)c2cccc(C(N)=O)c2)cc1 (configuration not stated)
-12%,CC(=O)Nc1ccc2[nH]ccc2c1
-12%,CCc1ccc(S(=O)(=O)Nc2c(C)nc3nc[nH]n3c2=O)cc1
-22%,CCCCCn1c(SCc2cccc(C)c2)nc2c1c(=O)[nH]c(=O)n2C
-1%,O=c1[nH]c(C2CCN(S(=O)(=O)c3ccc(S(=O)(=O)NC4CC4)cc3)CC2)nc2c1nnn2Cc1cccc(F)c1
12%,COc1ccc(CCNC(=O)/C=C/C(=O)O)cc1

Compounds from the list above that have an NH in an aromatic ring, in the order listed:
VDR inh,Compound
9%,COc1ccc(N(Cc2cc3ccccc3[nH]c2=O)C(=O)C2CCCO2)cc1 (configuration not stated)
-3%,CCCCOC(=O)c1ccc(NC(=O)c2c(N)n(C)c(=O)[nH]c2=O)cc1
-1%,COC(=O)c1ccc(NC(=O)CSc2n[nH]c(-c3ccncc3)n2)cc1
-15%,COc1ccccc1CNS(=O)(=O)c1c(C)[nH]c(C)c1C(=O)N1CCCCC1
-2%,CCOC(=O)Cn1nnnc1C(C(C)C)N(Cc1cccs1)Cc1cc2cc(C)ccc2[nH]c1=O (configuration not stated)
3%,Cc1ccccc1CNC(=O)c1oc2c(c1C)-c1[nH]ncc1CC2
-2%,CCCCn1c(N)c(N(CC)C(=O)c2ccc(N3CCCC3=O)cc2)c(=O)[nH]c1=O
7%,Cc1cc(=O)[nH]c(N/N=C/c2ccccc2Cl)n1
-2%,COc1ccc(C2c3[nH]c4ccccc4c3CCN2CCCn2cccn2)c(C)c1C (configuration not stated)
-7%,O=C1c2ccccc2C(O)(c2ncc[nH]2)N1CCc1ccccc1 (configuration not stated)
-3%,CCCN(C(=O)c1nc2nccc(C)n2n1)c1c(N)n(Cc2ccccc2)c(=O)[nH]c1=O
3%,CCN(Cc1ccccc1)C(=O)c1[nH]c2ccc(OC)cc2c1C
-12%,CC(=O)Nc1ccc2[nH]ccc2c1
-12%,CCc1ccc(S(=O)(=O)Nc2c(C)nc3nc[nH]n3c2=O)cc1
-22%,CCCCCn1c(SCc2cccc(C)c2)nc2c1c(=O)[nH]c(=O)n2C
-1%,O=c1[nH]c(C2CCN(S(=O)(=O)c3ccc(S(=O)(=O)NC4CC4)cc3)CC2)nc2c1nnn2Cc1cccc(F)c1
